HPGD inh – blocks human HPGD enzyme activity; P15428; purified HPGD, NADH fluorescence kinetic, PGE2 substrate; Potency, µM, for the others: at the top dose activity change, negative = inhibition, hits mostly inhibitors; 150,000 compounds, 4.3% hits; AID 894; active = well fitted inhibition curve with a large enough effect (not every such curve was filed as active); inconclusive = small, poorly fitted or top-dose-only effect, or another doubt; inactive = no such curve, though single readings can be large or run the other way;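 note: top concentration of the series not given in the record; plate controls included wells without enzyme; inactives centre near -10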
Target sequence (P15428 whole entry, looked up): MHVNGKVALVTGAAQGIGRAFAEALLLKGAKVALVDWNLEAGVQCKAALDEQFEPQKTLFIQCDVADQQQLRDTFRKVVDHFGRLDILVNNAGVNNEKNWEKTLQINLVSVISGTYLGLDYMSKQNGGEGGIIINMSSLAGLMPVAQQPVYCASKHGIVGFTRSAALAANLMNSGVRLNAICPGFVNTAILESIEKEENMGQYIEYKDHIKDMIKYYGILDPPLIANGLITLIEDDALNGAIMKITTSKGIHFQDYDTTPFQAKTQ
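20 nM HPGD preincubated 15 min at room temperature with compound in 50 mM Tris-HCl pH 8, 0.01% Tween 20. Started with 1 mM NAD+ and 30 uM prostaglandin E2; NADH fluorescence (360/450 nm) read 5 times over 30-s intervals, last minus first.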
* marks the source's active call; other numbers are inactive results; ? = inconclusive. % is set by controls: 0 for no effect and ±100 for the full control effect; potency is the fitted concentration of half-maximal effect. Some of the compounds tested; rates above refer to the full screens.

SMILES | HPGD inh
CCCOC(=O)CN1C(=O)c2ccccc2C1=O | -6%
COc1ccc(C(=O)NNC(=S)NC2CCCCC2)cc1OC | -5%
N#Cc1cccc(CS(=O)(=O)c2ccccc2)c1 | -8%
CCOC(=O)C1=C(CSc2nc3c(cc2C#N)CN(C)CC3)OC(N)=C(C#N)C1c1ccc(F)cc1 (stereo not given) | -31%
N#CC(C(=O)OC1CCCCC1)c1nc2ccccc2nc1N1CCCCC1 (stereo not given) | -8%
O=C(CSc1ncnc2c1oc1ccccc12)Nc1cccc(F)c1 | -12%
Cn1cnc([N+](=O)[O-])c1Oc1ccc2ccccc2c1 | -14%
Cc1ccc(NC2=C(Cl)C(=O)OC2NC(=O)c2ccccc2)cc1 (stereo not given) | -4%
CCCc1cc2c(n1Cc1cc(F)cc(F)c1)C(C)C1CN(C(=O)c3ccccc3)C(C)(C(=O)OC)C21 (stereo not given) | -12%
CCCn1c(SCC(N)=O)nc2c(c1=O)C1(CCCC1)Cc1ccccc1-2 | -16%
Cc1csc(NC(=O)c2cc([N+](=O)[O-])cc([N+](=O)[O-])c2)n1 | ?
C[C@]12CC[C@H]3c4ccc(O)cc4CC[C@@H]3[C@H]1C/C(=N/O)[C@H]2O | -3%
c1coc(C2Nc3cccc4cccc(c34)N2)c1 | ?
Oc1ccccc1-c1cc(-c2ccccc2Cl)[nH]n1 | 14µM*
O=C(/C=C/c1cccs1)Nc1nc(-c2ccccc2)cs1 | -14%
O=C(NCCn1cc(SCc2ccc(F)cc2)c2ccccc21)c1c(F)cccc1F | -12%
COc1ccc(CN2CCCCC2C(=O)Nc2ccc(OC)c(OCC(C)C)c2)cc1OC (stereo not given) | 5%
NS(=O)(=O)c1ccc(NC(=O)N2c3ccccc3Sc3ccccc32)cc1 | -9%
Cc1ccc(/C=N/NC(=O)c2ccco2)s1 | -13%
CC(C)COC(=O)Nc1ccccc1C(=O)N1CCOCC1 | 6%
CCCCn1nnc(NC(=O)COc2cc(C)ccc2C(C)C)n1 | -7%
Cc1[nH]c2ccccc2c1/C=N\NC(=O)Cn1nnc(-c2ccccc2)n1 | -8%
CCOC(=O)c1c(C)[nH]c(C)c1C(=O)COC(=O)/C=C/c1cccc(F)c1 | -5%
COc1ccccc1OCC(=O)Nc1ccc(S(=O)(=O)NC(C)=O)cc1 | -17%
CCOC(=O)NC1(C(F)(F)F)C(=O)NC(C)=C1C(=O)OC (stereo not given) | -9%
CCOC(=O)C1CCCN(C(=O)c2ccc(CS(=O)(=O)Cc3ccccc3C)o2)C1 (stereo not given) | 4%
CCOC(=O)C1CCN(C(=O)CN(Cc2ccc(Cl)cc2)S(C)(=O)=O)CC1 | -13%
O=C(Cn1ncc2c3ccccc3n(Cc3ccc(F)cc3)c2c1=O)N1CCN(c2ncccn2)CC1 | ?
COc1ccccc1-n1c(SCC(=O)c2ccc(O)cc2O)nc2cc([N+](=O)[O-])ccc21 | -16%
Cc1ccc(C)c(OCC(=O)Nc2cc(C)on2)c1 | -2%
COc1ccccc1CNC(=O)CSc1nnc2c(Cl)cc(C(F)(F)F)cn12 | -15%
O=C1c2cccc3c(O)ccc(c23)C(=O)N1Cc1ccccc1 | -29%
C/C(=N\Nc1nc(N)cc(Cl)n1)c1cccc([N+](=O)[O-])c1 | -17%
O=C(c1ccccc1)N1CCN(C2c3cccc4cccc(c34)C2NS(=O)(=O)c2ccccc2)CC1 (stereo not given) | -11%
Cc1ccc(C(=O)NC2CCN(C(=O)N3CCOCC3)CC2)cc1 | -4%
CCOC(=O)c1cccc(N/C=C/C(=O)c2ccc(OC)c(OC)c2)c1 | -10%
CC(C)[C@@H]1NC(=O)c2cc([N+](=O)[O-])cc(I)c2OCC[C@@H](C(N)=O)NC(=O)[C@H](CCC(=O)O)NC1=O | -12%
Cc1ccc(C(=O)NNC(=S)NC(=O)c2ccc(Cl)cc2Cl)cc1 | -3%
COc1cc(S(=O)(=O)N2CCCCC2)ccc1NC(=O)c1ccc(F)cc1 | 10%
CCOC(=O)N1CCC(NC(=O)Cc2cn(C)c3ccccc23)CC1 | -11%
O=C(NN1C(=O)C2C(c3ccccc3)C=CC(c3ccccc3)C2C1=O)c1ccccc1 (stereo not given) | -18%
Cc1c(NC(=O)CN2C(=O)NC(C)(c3ccccc3)C2=O)c(=O)n(-c2ccccc2)n1C (stereo not given) | -9%
O=[N+]([O-])c1ccccc1SNc1ccccn1 | -9%
O=C(CCn1c(=O)[nH]c2ccsc2c1=O)N(CCc1ccccc1)Cc1ccccc1 | -11%
COc1ccc(CCNC(=O)C2CCN(c3ccc(N4CCOCC4)nn3)CC2)c(OC)c1 | ?
CCOc1cc(S(=O)(=O)Nc2ccccn2)ccc1F | -18%
C=CCc1ccccc1OC[C@H](O)CNC(C)C | -6%
OC1CCN(c2c3c(nc4cc(-c5ccc(F)cc5)nn24)CCC3)CC1 | -19%
O=c1nc(NC2CCCC2)ccn1Cc1cccc(Br)c1 | ?
COCCCNC(=O)CN1C(=O)CSc2ncccc21 | 0%
Cc1nc2ccccc2nc1OCc1cccc(Cl)c1 | ?
COc1ccc(C(=O)NCC(=O)NCC(=O)OCC(=O)c2cccs2)cc1 | -12%
O=C(c1ccc(Cl)c(Cl)c1)N1CCCC1 | 20µM*
Cc1nn(-c2ccccc2)c(C)c1C(=O)OCC(=O)NCc1ccco1 | -17%
COc1ccc(-c2ccnc3nc(N4CCOCC4)nn23)cc1 | ?
CCc1nnc(NC(=O)c2cccc(S(=O)(=O)N3CCc4ccccc43)c2)s1 | -12%
Cc1cc(C)c2c(=O)[nH]n(C3CCOC(C)(C)C3)c2n1 (stereo not given) | -2%
O=C(CSc1ccc2nnc(-c3cccnc3)n2n1)N1CCc2ccccc21 | -6%
COc1cc2c(cc1OC)C(c1ccccc1)CN(C)CC2 (stereo not given) | -6%
CCOC(=O)c1c(C)c(C(=O)N2CCCCCC2)c(C)n1C | 16µM*
Additional results
SMILES | HPGD inh
O=C(CSCc1ccccc1)NNC(=S)Nc1cccc(Cl)c1Cl | -10%
CCOC(=O)c1n[nH]c2ccccc12 | -5%
O=C(Nc1cc(C(=O)N2CCOCC2)ccc1N1CCCC1)c1cccs1 | -21%
Cc1ccc(N(C(=O)c2ccccn2)C2(C(=O)NC3CCCC3)CCCCC2)cc1 | -2%
CCOc1c2ccc(C(=O)NCc3ccco3)cc2nn1CC | ?
COc1ccccc1-c1oc2ccccc2c(=O)c1O | ?
CC(C)n1cc(/C=C2\NC(=O)N(c3cccc(Cl)c3)C2=O)c2ccccc21 | -19%
CCc1c(C)sc(NC(=O)c2cc(C3CC3)on2)c1C#N | -21%
COc1cc2c(cc1OC)CN(Cc1cc(=O)n3cc(C)ccc3n1)CC2 | ?
CN(CCCNC(=O)C1CCC(=O)N1Cc1ccc(F)cc1)c1ccccc1 (stereo not given) | -3%
CC(C)C(NC(=O)OC(C)(C)C)C(=O)N1CCCC1C(=O)NC(Cc1ccccc1)C(N)=O (stereo not given) | -3%
O=C(CNC(=O)c1cccc(F)c1)OCC(=O)N1CCCCC1 | -9%
Cc1cc(N2CCCCC2)n2ncc(-c3ccc(Cl)cc3)c2n1 | ?
O=C(NCCN1CCOCC1)C1CCC(=O)N1Cc1ccc(F)cc1 (stereo not given) | -3%
O=S(=O)(/N=C(\Sc1ccc(Cl)cc1)c1ccccc1)c1ccccc1 | 20µM*
Cn1c(=O)n(C)c2cc([N+](=O)[O-])c(N3CCN(C(=O)c4cccc(Cl)c4)CC3)cc21 | -7%
O=C(Nc1ccn(Cc2ccc(F)cc2)n1)c1ccncc1 | 1%
COc1cccc(Nc2c(F)c(F)c(F)c(F)c2C(=O)O)c1 | -4%
CCn1nc(C)c(NS(=O)(=O)c2ccc(C)cc2)c1C | -22%
CCOC(=O)c1cnc(SC)nc1Sc1cc(Cl)ccc1Cl | 7.1µM*
Cc1ccc(N2C(=O)C(O)(C(F)(F)F)C3=C2CC(C)(C)CC3=O)cc1 (stereo not given) | -6%
CCC(Sc1nc2cc3c(cc2c(=O)n1Cc1ccco1)OCO3)C(=O)Nc1cccc(OC)c1 (stereo not given) | -11%
CSc1ccccc1C(=O)NCC1CCCO1 (stereo not given) | 16µM*
COC(=O)c1cc(OC)c(OC)cc1NC(=O)c1cccnc1 | -13%
O=C(NC1CCCCC1)C(c1ccc2ncccc2c1)N(Cc1ccc2c(c1)OCO2)C(=O)c1ccc2c(c1)OCCO2 (stereo not given) | -14%
Cn1cccc1C(=O)N1CCC[C@@]2(CCN(C(=O)Nc3cccc(F)c3)C2)C1 | -2%
CC1CCc2ccccc2N1C(=O)c1cccs1 (stereo not given) | -3%
C=CCOc1ccccc1CNc1cccc(F)c1 | -2%
COc1cc(/C=N/O)cc(Br)c1OC | -15%
Cn1c(SCc2ccccc2)nnc1C1CCCNC1 (stereo not given) | -2%
COc1ccc(C2SCC(=O)N2c2nnc(C34CC5CC(CC(C5)C3)C4)s2)cc1 (stereo not given) | -9%
CC(C)(C)NC[C@H](O)COc1cccc2c1CCC(=O)N2 | 1%
CSc1oc(-c2ccccc2)nc1S(=O)(=O)c1ccc(C)cc1 | ?
O=c1sc(N2CCN(c3ccccc3F)CC2)nc2ccsc12 | ?
Cc1ccc(S(=O)(=O)N2CCOCC2)cc1C(=O)NCCCn1ccnc1 | -14%
CCOC(=O)N1CCC(NC(=O)Cn2nc(Cc3ccncc3)c3ccccc3c2=O)CC1 | -5%
Cn1cccc1CNC(=O)Nc1ccccc1 | -3%
Cn1c(-n2c(CCCN3C(=O)c4ccccc4C3=O)nc3ccccc3c2=O)nc2ccccc21 | -10%
CC(=O)NC1(c2cccc(F)c2)CCN(CC(=O)NC2CCCCC2)CC1 | -11%
COC(=O)CC1(c2ccccc2)C(=O)c2ccccc2C1=O | -10%
COc1ccccc1N1C(=O)C2CC(C)=C(C)CC2C1=O (stereo not given) | -9%
COCCCNC(=O)CCCn1c(=O)c2ccccc2n(CC(=O)Nc2c(C)cccc2C)c1=O | -3%
COc1cc(C)c(C(C)C)cc1S(=O)(=O)N1CCOCC1 | -4%
CC(C)NC(=O)COC(=O)CNC(=O)c1cc(Cl)cc([N+](=O)[O-])c1 | -8%
COc1ccc(S(=O)(=O)Cc2ccc(C(=O)N3CCOCC3)o2)cc1 | -11%
OCCOCCNc1ncnc2c1cnn2-c1ccc(Cl)cc1 | -2%
CC12CCC(C(=O)NCc3ccc4c(c3)OCO4)(CC1=O)C2(C)C (stereo not given) | -8%
Cc1[nH]c2ccccc2c1C(=O)CSC(=S)N(C)C1CCCCC1 | -7%

Part of the list above, reformatted.
HPGD inh,compound
-3%,CC1CCc2ccccc2N1C(=O)c1cccs1 (stereo not given)
-2%,C=CCOc1ccccc1CNc1cccc(F)c1
-15%,COc1cc(/C=N/O)cc(Br)c1OC
-2%,Cn1c(SCc2ccccc2)nnc1C1CCCNC1 (stereo not given)
-9%,COc1ccc(C2SCC(=O)N2c2nnc(C34CC5CC(CC(C5)C3)C4)s2)cc1 (stereo not given)
1%,CC(C)(C)NC[C@H](O)COc1cccc2c1CCC(=O)N2
?,CSc1oc(-c2ccccc2)nc1S(=O)(=O)c1ccc(C)cc1
?,O=c1sc(N2CCN(c3ccccc3F)CC2)nc2ccsc12
-14%,Cc1ccc(S(=O)(=O)N2CCOCC2)cc1C(=O)NCCCn1ccnc1
-5%,CCOC(=O)N1CCC(NC(=O)Cn2nc(Cc3ccncc3)c3ccccc3c2=O)CC1
-3%,Cn1cccc1CNC(=O)Nc1ccccc1
-10%,Cn1c(-n2c(CCCN3C(=O)c4ccccc4C3=O)nc3ccccc3c2=O)nc2ccccc21
-11%,CC(=O)NC1(c2cccc(F)c2)CCN(CC(=O)NC2CCCCC2)CC1
-10%,COC(=O)CC1(c2ccccc2)C(=O)c2ccccc2C1=O
-9%,COc1ccccc1N1C(=O)C2CC(C)=C(C)CC2C1=O (stereo not given)
-3%,COCCCNC(=O)CCCn1c(=O)c2ccccc2n(CC(=O)Nc2c(C)cccc2C)c1=O
-4%,COc1cc(C)c(C(C)C)cc1S(=O)(=O)N1CCOCC1
-8%,CC(C)NC(=O)COC(=O)CNC(=O)c1cc(Cl)cc([N+](=O)[O-])c1
-11%,COc1ccc(S(=O)(=O)Cc2ccc(C(=O)N3CCOCC3)o2)cc1
-2%,OCCOCCNc1ncnc2c1cnn2-c1ccc(Cl)cc1
-8%,CC12CCC(C(=O)NCc3ccc4c(c3)OCO4)(CC1=O)C2(C)C (stereo not given)
-7%,Cc1[nH]c2ccccc2c1C(=O)CSC(=S)N(C)C1CCCCC1

In a second layout: 2 of the compounds above
COc1ccc(S(=O)(=O)Cc2ccc(C(=O)N3CCOCC3)o2)cc1
  HPGD inh: -11%
COc1ccccc1N1C(=O)C2CC(C)=C(C)CC2C1=O (stereo not given)
  HPGD inh: -9%

Additional results
SMILES | HPGD inh
C/C(=N\NC(=O)COc1ccc(C)cc1C(C)C)c1cc2ccccc2o1 | ?
CCOC(=O)C1=C(C)N(Cc2ccccc2)C(=O)NC1c1ccc(OC)cc1 (stereo not given) | -14%
O=C(CCS(=O)(=O)c1ccc(Br)cc1)N1CCN(c2ccccc2F)CC1 | 1%
CC(=O)Nc1ccc(S(=O)(=O)N2CCN(c3ccc([N+](=O)[O-])c(NCCN4CCOCC4)c3)CC2)cc1 | -8%
Cc1ccc(NS(=O)(=O)c2ccc(Cl)c(NC(=S)NC(=O)C3CCCCC3)c2)cc1Cl | -15%
COc1ccccc1OCC(=O)NNC(=O)c1cccs1 | -3%
Cc1cc(NC(=O)C2CC=CCC2C(=O)O)no1 (stereo not given) | -2%
COc1ccc(-c2nc(C)sc2CC(=O)O)cc1 | -17%
CCOc1ccccc1NC(=O)C1CCCN1C(=O)OCc1ccccc1 (stereo not given) | 1%
CCOn1c(=O)c(-c2cc3ccccc3o2)[n+]([O-])c2ccccc21 | -5%
CC1CCN(C(=S)NCCc2ccccc2)CC1 | -3%
O=C(/C=C/Nc1ccccc1OC(F)(F)F)C(F)(F)F | -2%
COc1ccc(Br)cc1C1SCCN1S(C)(=O)=O (stereo not given) | -8%

Screening results as filed in PubChem.
